SARS PLP yeast: SARS-CoV PLP inhibition in yeast; S. cerevisiae expressing SARS-CoV PLpro, growth rescue; control for the full effect not named in the record; Potency, µM (series often up to 32.9 µM), for inactives: at the highest dose activity, positive = growth rescue; 330,000 compounds, 0.19% hits; active means well fitted rising curve with a large enough effect; inconclusive means small, poorly fitted or top-dose-only effect; inactive means no such curve, though single readings can be large or run the other way; note: 0% is about no effect; nearly all actives have a fitted effect of over 55% in size; growth read by luminescence after 48 h
MARV entry inh: blocks Marburg virus binding to or entry into cells; Marburg virus pseudotyped entry inhibition, cell reporter; control for the full effect not named in the record; about a third of the inactives were read at about 46 µM; Potency, µM (titrated, usually from 37.8 µM), inactives show at the top dose activity change, negative = inhibition, usual class: inhibitors; 300,000 compounds, 1.8% hits; AID 540276; active = well fitted inhibition curve with a large enough effect; inconclusive = small, poorly fitted or top-dose-only effect, or effect the other way; inactive = flat fitted curve, though single readings scatter; tested in HEK293 cells; about a fifth of its hits are not listed in these tables; note: % is set by controls: 0 for no effect and ±100 for the full control effect; luciferase read-out
RE007 growth inh: less growth of the S. pombe RE007 Vpr strain; S. pombe RE007 Vpr strain, BacTiter-Glo ATP luminescence, 24 h; control for the full effect not named in the record; Potency, µM (highest dose often 92.2 µM), for inactives: at the highest dose activity change, negative = less growth; 360,000 compounds, 0.21% hits; AID 651644; active = well fitted falling curve with a large enough effect; inconclusive = small, poorly fitted or top-dose-only effect; inactive = no such curve, though single readings can be large or run the other way;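 note: % is set by controls: 0 for no effect and ±100 for the full control effect; nearly all actives have a fitted effect of over 50% in size; the assay follows cell death caused by Vpr and the record does not say whether a fall means rescue or toxicity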
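Fission yeast RE007 carrying one integrated HIV-1 vpr copy, seeded at OD 0.01 in PMG+AL medium with 23 nL pinned compound. Grown 24 h at 30 degrees; viability read by BacTiter-Glo luminescence after 5 min.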
NS1 inh: blocks influenza NS1 protein function; S. cerevisiae slowed by influenza A NS1, growth recovery by OD600; Potency, µM (doses to about 46.1 µM), inactives show at the highest dose activity, positive = more growth; 270,000 compounds, 0.4% hits; AID 2326; active means well fitted rising curve with a large enough effect; inconclusive means small, poorly fitted or top-dose-only effect; inactive means no such curve, though single readings can be large or run the other way; note: nearly all actives have a fitted effect of over 50% in size
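A cell-based growth assay was used: compounds that relieve NS1-induced slow growth of budding yeast raise OD600. Assay medium was yeast nitrogen base with ammonium sulphate and -URA supplement, pH 6.0, with 2% galactose.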
Cruzain inh Det: blocks cruzain activity in presence of Triton detergent; P25779; purified cruzain, Z-FR-AMC fluorescence, 0.01% Triton; Potency, µM, without a hit: max response, negative = inhibition, hits mostly inhibitors; 200,000 compounds, 0.43% hits;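 note: plate controls were neutral wells for no effect and buffer without enzyme for full effect; nearly all actives have a fitted effect of over 40% in size; top concentration of the series not given in the record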
Target sequence (P25779 123-467 limits assumed): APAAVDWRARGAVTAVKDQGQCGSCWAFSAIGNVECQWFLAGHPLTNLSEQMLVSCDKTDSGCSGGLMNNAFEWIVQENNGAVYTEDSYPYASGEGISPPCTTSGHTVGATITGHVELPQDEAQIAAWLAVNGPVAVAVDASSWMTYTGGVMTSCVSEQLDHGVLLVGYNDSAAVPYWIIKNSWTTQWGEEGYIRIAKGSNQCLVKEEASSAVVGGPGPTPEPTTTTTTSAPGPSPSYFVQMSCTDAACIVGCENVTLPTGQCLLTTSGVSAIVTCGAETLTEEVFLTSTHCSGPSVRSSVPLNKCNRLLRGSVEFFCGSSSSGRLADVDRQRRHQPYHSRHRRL
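In this qHTS format, compounds are incubated with 1.5 nM cruzain for 15 min at room temperature before 2 uM Z-FR-AMC is added. Release of AMC is followed at 360/450 nm, and progress is taken as the 60 s fluorescence difference.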
StopGo reporter: FMDV 2A StopGo reporter, luciferase signal; human cells with a luciferase reporter of 2A StopGo recoding; control for the full effect not named in the record; Potency, µM (titrated, usually from 57.9 µM), without a hit: at the top dose signal change, negative = less light; 410,000 compounds, 1.2% hits; active = well fitted falling curve with a large enough effect; inconclusive = small, poorly fitted or top-dose-only effect; inactive = no such curve, though single readings can be large or run the other way; tested in HEK293T cells; note: % is set by controls: 0 for no effect and ±100 for the full control effect; nearly all actives have a fitted effect of over 45% in size; luciferase light after 4 h
Lassa entry inh: inhibitors of Lassa virus binding or cell entry; Lassa virus pseudotype entry inhibition, cell reporter; control for the full effect not named in the record; Potency, µM (series often up to 37.9 µM), for inactives: top-dose activity change, negative = inhibition, actives largely listed as inhibitors; AID 540256; 300,000 compounds, 1.2% hits; active means well fitted inhibition curve with a large enough effect; inconclusive means small, poorly fitted or top-dose-only effect, or effect the other way; inactive means flat fitted curve, though single readings scatter; tested in HEK293 cells; note: % is set by controls: 0 for no effect and ±100 for the full control effect; nearly all actives have a fitted effect of over 50% in size; luciferase read-out
Cruzain noTriton: inhibitors of Trypanosoma cruzi cruzain without detergent | purified cruzain, Z-FR-AMC fluorescence, no detergent | 200,000 compounds, 2.3% hits | P25779 | Potency, µM, for inactives: max response, negative = inhibition, actives largely listed as inhibitors;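 note: plate controls were enzyme without inhibitor for no effect and buffer without enzyme for full effect; nearly all actives have a fitted effect of over 40% in size; top concentration of the series not given in the record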
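Purified cruzain at 1.5 nM, pre-incubated 15 min with compound at room temperature in 100 mM sodium acetate pH 5.5, 5 mM DTT, 0.00005% Triton X-100. Reaction started with 2 uM Z-FR-AMC; AMC fluorescence increase over 60 s gives rate.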
An asterisk follows results filed as active; ? = inconclusive; · = not tested or not shown; & = joins results of further samples; [ ] = another dose, or the depositor's remark. Unless noted, calls come from the whole dose curve; as a rule, active = well fitted curve in the direction sought with a large enough effect; inconclusive = small, poorly fitted or top-dose-only effect, or another doubt; inactive = no such curve, though single readings can be large; an effect the other way counts as inactive or inconclusive. Potency is the fitted concentration of half-maximal effect.

The opening four compounds as a preview:
Order of results: SARS PLP yeast	MARV entry inh	RE007 growth inh	NS1 inh	Cruzain inh Det	StopGo reporter	Lassa entry inh	Cruzain noTriton
- C/C(=N/NC(=O)c1ccccc1O)c1ccc(N2C(=O)C3CCCCC3C2=O)cc1 (stereo not given)
→ -21%	29%	-7%	-7%	2.2%	20%	-4%	-4%
- Cc1nn(CC(=O)N2CCN(c3ccccc3)CC2)c(=O)c2cccn12
→ -3%	-1%[46.1 µM]	-5%	-12%	-5.4%	-5%&-30%	13%[46.1 µM]	-5%
- O=C1CCN(Cc2ccccc2)CCN1[C@H](CO)Cc1ccccc1
→ 1%	·	7%	-5%	·	-4%	·	·
- COc1ccc(C(=O)N2CCCC(CCC(=O)NCc3ccc(F)c(F)c3)C2)o1 (stereo not given)
→ -1%	9%[46.1 µM]	-8%	1%	·	51%[activator]	12%	·

The listing, from the start:
Order of results: SARS PLP yeast	MARV entry inh	RE007 growth inh	NS1 inh	Cruzain inh Det	StopGo reporter	Lassa entry inh	Cruzain noTriton
- C/C(=N/NC(=O)c1ccccc1O)c1ccc(N2C(=O)C3CCCCC3C2=O)cc1 (stereo not given)
→ -21%	29%	-7%	-7%	2.2%	20%	-4%	-4%
- Cc1nn(CC(=O)N2CCN(c3ccccc3)CC2)c(=O)c2cccn12
→ -3%	-1%[46.1 µM]	-5%	-12%	-5.4%	-5%&-30%	13%[46.1 µM]	-5%
- O=C1CCN(Cc2ccccc2)CCN1[C@H](CO)Cc1ccccc1
→ 1%	·	7%	-5%	·	-4%	·	·
- COc1ccc(C(=O)N2CCCC(CCC(=O)NCc3ccc(F)c(F)c3)C2)o1 (stereo not given)
→ -1%	9%[46.1 µM]	-8%	1%	·	51%[activator]	12%	·
- CCC(=O)N1CCc2cc(S(=O)(=O)CCC(=O)Nc3cc(Cl)ccc3OC)ccc21
→ ·	1%[46.1 µM]	·	·	-1.9%	2%	8%[46.1 µM]	12%
- O=C(O)/C=C/C(=O)NCCNc1ncc(C(F)(F)F)cc1Cl
→ -5%	2%[46.1 µM]	?	-3%	·	-5%	1%[46.1 µM]	·
- COc1cccc(C(=O)NCCS(=O)(=O)NCc2ccccn2)c1
→ -7%	2%	-7%	·	·	?	15%	·
- CC(C)n1c(CSCc2ccc(Cl)cc2Cl)n[nH]c1=S
→ -6%	?	12%	·	·	?	?	·
- CC1=C(c2ccc(F)cc2)[N+](=O)C(C)(C)N1[O-]
→ -1%	5%[46.1 µM]	-20%	-7%	·	21%	18%	·
- Cc1nc2sc(C(c3ccco3)N3CCN(c4ccc(F)cc4)CC3)c(O)n2n1 (stereo not given)
→ 2%	·	-8%	3%	·	-24%	·	·
- CCOc1ccccc1CNc1ccc2cc(S(=O)(=O)N3CCC(C)CC3)ccc2n1
→ ·	·	·	·	-3.6%	-13%	-7%[46.1 µM]	-6%
- O=Cc1cccn1-c1ccc2ccccc2c1
→ -1%	·	-6%	-2%	·	47%[activator]	·	·
- O=C(CC12CC3CC(CC(C3)C1)C2)NCC(=O)OCc1cc(=O)oc2ccc3ccccc3c12
→ -6%	?	-9%	-13%	-6.2%	-7%	-4%[46.1 µM]	?
- Cc1ccccc1-n1c(C)nnc1SCc1nc2ccccc2s1
→ 6%	4%	-8%	-11%	2.7%	·	0%	?
- CC(C)NS(=O)(=O)c1ccc2nc(NC(=O)c3cncc(Br)c3)sc2c1
→ ·	·	·	·	1.0%	3%	24%[46.1 µM]	8%

Order of results: SARS PLP yeast	MARV entry inh	RE007 growth inh	NS1 inh	Cruzain inh Det	StopGo reporter	Lassa entry inh	Cruzain noTriton
- O=C(N/N=C1/CN2CCC1CC2)c1cccc(O)c1
→ 2%	-2%	2%	7%	3.5%	46%[activator]	4%	0%
- COc1ccccc1C(C#N)c1cccc(Cl)n1 (stereo not given)
→ 2%	·	8%	3%	·	3%	·	·
- CC(C)c1ccccc1OCCCN1CCCC1
→ -8%	·	-3%	-16%	·	-8%	·	·
- CC(=O)n1cc(CO)c2ccccc21
→ 1%	·	-17%	-5%	·	-15%	·	·
- COCCCN(C(=S)NC(=O)c1ccc(Br)cc1)c1c(N)n(Cc2ccccc2)c(=O)[nH]c1=O
→ 3%	?	-2%	·	·	-10%	8%	·
- Cn1c(CCNC(=O)c2ccccc2)nc2ccccc21
→ 23%	9%	-4%	9%	11µM*	·	1%	-16%
- COc1cccc(-c2ccc3nnc(SCC(=O)N4CCCC4)n3n2)c1
→ 3%	19%[46.1 µM]	3%	·	·	-15%	-18%	·
- O=C(NC1CCCC1)c1ccccc1-c1nc2ccccc2[nH]1
→ 2%	-15%	21%	7%	2.7%	0%	-12%	-4%
- CSCCCN1CCCC(CO)(Cc2ccccc2F)C1 (stereo not given)
→ 2%	·	-1%	-16%	·	-3%	·	·
- O=C(c1cccc(-n2cccc2)c1)N1CCN(S(=O)(=O)c2ccc(F)cc2)CC1
→ 2%	-15%[46.1 µM]	-3%	?	·	-13%	?	·
- O=C(/C=C\Nc1ccc2c(c1)OCO2)c1ccc(Cl)s1
→ 0%	?	-10%	·	·	?	?	·
- CCCN1C(=O)c2cc(C(=O)O)ccc2C1O (stereo not given)
→ -1%	·	11%	13%	-15%	-5%	·	-11%
- COc1cc(OC)cc(-c2cn[nH]c2N)c1
→ 0%	?	10%	6%	·	-11%	·	·
- CN(Cc1ccccc1)c1ccc(S(=O)(=O)N2CCOCC2)cn1
→ 4%	3%	-13%	-5%	-1.0%	-16%	-19%	14%
- COc1cccc2sc(N3CCN(C(=O)CS(=O)(=O)c4ccc(Cl)cc4)CC3)nc12
→ ·	·	·	·	-2.3%	?	?	?

Fetched by compound from above:
Order of results: SARS PLP yeast	MARV entry inh	RE007 growth inh	NS1 inh	Cruzain inh Det	StopGo reporter	Lassa entry inh	Cruzain noTriton
- O=C(O)/C=C/C(=O)NCCNc1ncc(C(F)(F)F)cc1Cl
→ -5%	2%[46.1 µM]	?	-3%	·	-5%	1%[46.1 µM]	·
- COc1cccc2sc(N3CCN(C(=O)CS(=O)(=O)c4ccc(Cl)cc4)CC3)nc12
→ ·	·	·	·	-2.3%	?	?	?

Following part
SMILES	SARS PLP yeast	MARV entry inh	RE007 growth inh	NS1 inh	Cruzain inh Det	StopGo reporter	Lassa entry inh	Cruzain noTriton
CCS(=O)(=O)Nc1cccc(C2=NN(S(=O)(=O)c3ccc(F)cc3)C(c3cccs3)C2)c1 (stereo not given)	5%	?	-19%	?	-3.4%	0%	?	-9%
O=S(=O)(c1ccccc1)c1nc(-c2ccco2)oc1NCc1ccco1	-3%	?	14%	-33%	-9.1%	-10%	19%	-7%
CC(CN1CCCCC1)OC(=O)C1c2ccccc2Oc2ccccc21 (stereo not given)	-2%	?	-17%	-4%	6.5%	-12%	-1%	5%
C[n+]1cc[nH]c1SCC(=O)c1ccc(Cl)cc1	-1%	?	-14%	4%	·	34%[activator]	?	·
O=C(NCCCN1CCCC1)c1ccc2c(c1)N(Cc1cccc(Cl)c1)C(=O)c1ccccc1S2=O (stereo not given)	-9%	·	-3%	0%	·	-16%	·	·
CCCC(=O)N1CC(=O)Nc2ccc(C)cc2C1c1ccccc1 (stereo not given)	3%	9%	0%	1%	·	-5%	?	·
CCc1cccc(C)c1NC(=O)C(C)Sc1nc2c(c(=O)[nH]1)CCCC2 (stereo not given)	·	5%[46.1 µM]	·	·	3.1%	-15%	17%[46.1 µM]	-1%
CC(C)(C)C(=O)/C=c1\[nH]c(=O)/c(=C\c2ccc(C#N)cc2)s1	-1%	-2%	7%	-4%	4.5%	?	12%	?
O=C(O)c1cc(S(=O)(=O)N2CCN(c3ccccn3)CC2)ccc1Cl	-1%	14%	-7%	·	·	-5%	10%	·
Cc1nc(NC(=O)C(C)Oc2cccc(Cl)c2)sc1C(=O)N(C)C (stereo not given)	-9%	?	15%	-2%	-1.3%	10%	-21%	1%
O=C(CCNC(=O)c1ccco1)Nc1ccccc1	1%	?	3%	-11%	·	-15%	23%[46.1 µM]	·
C=CCNC1=C(Cl)C(=O)N(Cc2ccccc2)C1=O	-3%	-3%[46.1 µM]	48%	-17%	·	-4%	0%[46.1 µM]	·
O=c1[nH]c(CN2CC=C(c3ccccc3)CC2)nc2scc(-c3ccccc3)c12	-2%	·	-3%	25%	·	-14%	·	·
CCc1cc2ccc(OC)cc2nc1SCC(=O)Nc1cc(C)on1	3%	?	0%	2%	6.7%	-24%	-16%	10µM*
Cc1ccc(NC(=O)CNC(c2ccccc2)c2ccccc2)c(F)c1	-7%	-26%	1%	-21%	-7.1%	31%[activator]	3%	-7%

SMILES	SARS PLP yeast	MARV entry inh	RE007 growth inh	NS1 inh	Cruzain inh Det	StopGo reporter	Lassa entry inh	Cruzain noTriton
COc1cccc(/C=N/NC(=O)CNC(=O)c2ccncc2)c1O	3%	·	10%	7%	·	-3%	·	·
CN(C)C1(CNC(=O)C2CCN(S(=O)(=O)c3ccccc3C(F)(F)F)CC2)CCCCC1	0%	5%	8%	3%	·	-2%	1%	·
O=C(Cc1cccs1)Nc1nc2c(ccc3ccccc32)s1	14%	?	-10%	-3%	-12%	-24%	7.9µM*	?
CCOc1ccc(C(=O)N(c2ccccn2)C2CCCCC2)cc1	-3%	6%[46.1 µM]	23%	·	·	-26%	?	·
COc1ccccc1NC(=O)CSc1nc2c(oc3ccccc32)c(=O)n1C	15%	·	9%	3%	·	-26%	·	·
Cc1ccc2c3c(c(SCC(=O)Nc4nonc4C)nc2c1)CCCC3	-2%	?	-13%	-3%	-2.6%	2%	?	-10%
CCOCCn1c(=NC(=O)CSCC(=O)N2CCOCC2)sc2cc(OC)ccc21	0%	·	0%	-3%	·	-9%	·	·
CC1CC(NC(=O)N(C)C)N(C)C(=O)N1 (stereo not given)	-30%	-8%	11%	-7%	-0.4%	-16%	6%	-5%
COc1ccc(OC)c(CNC(=O)CCCc2cn(C)c3ccccc23)c1	-3%	0%	-1%	-30%	2.7%	-19%	?	6%
